Mtb hypoxia inh – PubChem AID 1159583 | M. tuberculosis hypoxia-regulated fluorescent reporter, fluorescence | fluorescence inhibition, % (test concentration not listed) | 300,000 compounds, 0.1% hits;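 active means 35 to 45% if threefold the growth effect, above 45% if 1.5-fold the growth effect; inactive means the rest, general growth blockers included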;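 further: wells of about 50 µL received 100 nL stock; 0% = vehicle wells and 100% = reference inhibitor wells; whole bacteria with a GFP reporter of the hypoxia response; strong numbers were not always called active; many hits fall short of the cut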
Autofluor counter – counter-screen for toxin protease inhibitors: compound fluorescence | compound autofluorescence counterscreen, microsphere flow cytometry; active compounds read high | fluorescence intensity (no concentration beside the values) | 360,000 compounds, 3.1% hits | AID 624483;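 active means at least 3 SD above the mean of all compounds, about 16000 in these data; inconclusive means too few beads counted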;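 further: 100 nL of 1 mM stock went into each well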
RN4220 kill – growth inhibition of S. aureus RN4220, primary screen, OD600. 16 h. inhibition, % (concentration not given with the values). 330,000 compounds, 0.33% hits. AID 1259311, 2017;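 active means z-score of -3 or lower and OD600 up to 0.18 on both plates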;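 further: plate controls were untreated cells for no effect and reference antibiotic for full effect; stock transfer was 100 nL into about 80 µL; one replicate is shown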
BJeLR lethal – MLPCN primary cell-based screen for lethality selective to Ras in HRASV12 cells | BJeLR (HRASV12) viability, CellTiter-Glo ATP luminescence, 48 h; reference of the scale not given here | inhibition, % (no concentration beside the values) | 300,000 compounds, 0.17% hits;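 active means replicate mean above 50%; inconclusive means above 50% but judged a plate artefact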;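 further: 50 nL library stock added to about 25 µL; numbers are from one replicate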
Sa ugtP lethal – growth inhibition of ugtP-null S. aureus, primary screen, RN4220 ugtP deletion, OD600; 16 h; some inactives read as strong as hits; growth inhibition, % (no concentration beside the values); 330,000 compounds, 0.54% hits;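 active means z-score under -3 and OD600 up to 0.15 on both plates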;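 further: plate controls were untreated wells for no effect and antibiotic for full effect; wells of about 80 µL received 100 nL stock; the first replicate is given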
PrP 5UTR inh – inhibition of PrP 5' UTR reporter expression. 340,000 compounds, 0.35% hits. AID 488862, 2010. inhibition, % (test concentration not listed). cell-based PrP 5' UTR mRNA reporter, plate reader;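 active means every replicate at 50% or more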;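 further: 0 = median of the neutral control wells; tested in H4 reporter cells; numbers are from one replicate; inactives centre near -14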
Mtb hypoxia inh growth – further read-out of Mtb hypoxia inh, marked with its call; growth inhibition, %; measured here: M. tuberculosis growth (absorbance);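 0% = vehicle and 100% = reference antibiotic; read after six days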
* marks the source's active call; other numbers are inactive results; ? = inconclusive; . = not tested or not shown.

Keys: A = Mtb hypoxia inh; B = Mtb hypoxia inh growth; C = Autofluor counter; D = RN4220 kill; E = BJeLR lethal; F = Sa ugtP lethal; G = PrP 5UTR inh
> O=C(NC(=S)Nc1cccc2ncccc12)c1ccco1
  A: 5.8; B: -3.4; C: 3919; D: 2.5; E: -9.0; F: 13.6; G: -9.3
> COc1ccc(NC(=O)C2CCN(Cc3cnn(-c4ccccc4)c3-n3cccc3)CC2)cc1OC
  A: .; B: .; C: 2874; D: .; E: -4.8; F: .; G: -30.9
> O=C1CCC(C(=O)Nc2ccc(Cl)cc2)N1 (centres undefined)
  A: 4.2; B: 3.7; C: 4494; D: 5.5; E: -6.8; F: 18.4; G: 8.8
> COc1ccccc1C(=O)NC(CCSC)C(=O)N1CCN(C(C)=O)CC1 (centres undefined)
  A: -3.0; B: 2.8; C: ?; D: 0.9; E: .; F: 3.4; G: -4.9
> C[C@H](CO)N1C[C@H](C)[C@@H](CN(C)Cc2ccc(Cl)c(Cl)c2)Oc2c(NC(=O)C3CCOCC3)cccc2C1=O
  A: 3.4; B: -2.6; C: 3786; D: 7.6; E: .; F: 8.8; G: -16.1
> CC(C)CC(O)(c1ccccc1)C(CN1CCOCC1)c1ccccc1 (centres undefined)
  A: 7.1; B: 8.0; C: 3788; D: 10.4; E: 6.3; F: 10.2; G: -3.3
> Cc1ccc(S(=O)(=O)N2CCN(C(=O)n3ccnc3)CC2)cc1
  A: -6.6; B: -2.6; C: 2810; D: 3.6; E: .; F: 1.8; G: -14.2
> O=C(Cn1nc(-c2ccccc2)nc1-c1ccccc1)OC1CCCCC1
  A: 7.9; B: 3.2; C: 11364; D: 3.6; E: -1.2; F: 5.0; G: -17.1
> CCOc1cc(C=NNC(=O)NN=Cc2ccc(O)c(OCC)c2)ccc1O
  A: 4.0; B: 4.0; C: .; D: -4.9; E: .; F: 1.2; G: .
> COc1ccc(CN(CCC#N)C(=S)NC(=O)c2ccccc2)cc1
  A: .; B: .; C: 2689; D: 3.7; E: -1.1; F: -0.2; G: -15.5

Part of the list above, set out differently:
structure: C[C@H](CO)N1C[C@H](C)[C@@H](CN(C)Cc2ccc(Cl)c(Cl)c2)Oc2c(NC(=O)C3CCOCC3)cccc2C1=O
  Mtb hypoxia inh = 3.4 | Mtb hypoxia inh growth = -2.6 | Autofluor counter = 3786 | RN4220 kill = 7.6 | BJeLR lethal = . | Sa ugtP lethal = 8.8 | PrP 5UTR inh = -16.1

structure: O=C(Cn1nc(-c2ccccc2)nc1-c1ccccc1)OC1CCCCC1
  Mtb hypoxia inh = 7.9 | Mtb hypoxia inh growth = 3.2 | Autofluor counter = 11364 | RN4220 kill = 3.6 | BJeLR lethal = -1.2 | Sa ugtP lethal = 5.0 | PrP 5UTR inh = -17.1

(continued)
Keys: A = Mtb hypoxia inh; B = Mtb hypoxia inh growth; C = Autofluor counter; D = RN4220 kill; E = BJeLR lethal; F = Sa ugtP lethal; G = PrP 5UTR inh
> O=C(NCCC1=CCCCC1)C1CCN(C(=O)c2ccc(Cl)cc2)CC1
  A: 3.0; B: 8.4; C: 10146; D: 0.9; E: 1.7; F: -4.2; G: -25.9
> Cc1ccc(C2=NC(C)(C)N3C2C3c2ccc([N+](=O)[O-])cc2)cc1 (centres undefined)
  A: -0.4; B: 1.9; C: 2499; D: 7.6; E: -14.0; F: 2.2; G: -3.4
> COC(CNS(=O)(=O)c1cc2c3c(c1)CCN3C(=O)CC2)OC
  A: 16.8; B: 11.8; C: 5174; D: 4.0; E: 4.3; F: -1.5; G: -7.2
> O=C(CCc1nc2sc3c(c2c(=O)[nH]1)CCCC3)N1CCN(c2ccccc2)CC1
  A: 0.4; B: 2.4; C: 4052; D: 5.3; E: -9.6; F: 6.5; G: -21.0
> Cc1nc2cc(-c3ccc(Cl)cc3)nn2c(C)c1CCC(=O)N1CCC2(CC1)OCCO2
  A: -4.8; B: 14.4; C: 5731; D: 3.2; E: .; F: -12.7; G: 6.9
> Cc1ccc(S(=O)(=O)Nc2cc(C(=O)N3CCOCC3)ccc2N2CCCCC2)cc1
  A: .; B: .; C: 3168; D: 6.4; E: -0.8; F: 9.8; G: 3.2
> COc1nc(N(C)C)nc(-n2nnc(C(C)=O)c2C)n1
  A: 3.7; B: 4.2; C: 4107; D: 8.1; E: 11.4; F: 3.7; G: -3.8
> COC(=O)c1ccccc1NC(=O)CN(C)S(=O)(=O)c1ccc(OC)c(C)c1
  A: 1.5; B: -1.5; C: 11930; D: 2.2; E: 1.7; F: -7.2; G: -11.4
> Cc1cc(NC(=O)CSc2n[nH]c(=O)[nH]c2=O)ccc1Br
  A: 2.4; B: -3.6; C: 4694; D: 1.1; E: 0.4; F: 9.1; G: -28.6
> COc1ccc(OCCCC(=O)OC(C)C(=O)Nc2cccc(C(C)=O)c2)cc1 (centres undefined)
  A: 7.5; B: 4.9; C: 4932; D: 1.7; E: -18.3; F: 6.1; G: 5.4

Individual results from the entries so far.
Under RN4220 kill, Cc1nc2cc(-c3ccc(Cl)cc3)nn2c(C)c1CCC(=O)N1CCC2(CC1)OCCO2 shows 3.2
Under Sa ugtP lethal, Cc1ccc(S(=O)(=O)Nc2cc(C(=O)N3CCOCC3)ccc2N2CCCCC2)cc1 shows 9.8

Profiles as entered above.
COC(CNS(=O)(=O)c1cc2c3c(c1)CCN3C(=O)CC2)OC across the screens: Mtb hypoxia inh = 16.8; Mtb hypoxia inh growth = 11.8; Autofluor counter = 5174; RN4220 kill = 4.0; BJeLR lethal = 4.3; Sa ugtP lethal = -1.5; PrP 5UTR inh = -7.2
O=C(Cn1nc(-c2ccccc2)nc1-c1ccccc1)OC1CCCCC1 across the screens: Mtb hypoxia inh = 7.9; Mtb hypoxia inh growth = 3.2; Autofluor counter = 11364; RN4220 kill = 3.6; BJeLR lethal = -1.2; Sa ugtP lethal = 5.0; PrP 5UTR inh = -17.1

New compounds follow:
Keys: A = Mtb hypoxia inh; B = Mtb hypoxia inh growth; C = Autofluor counter; D = RN4220 kill; E = BJeLR lethal; F = Sa ugtP lethal; G = PrP 5UTR inh
> O=C(COC(=O)/C=C/c1cccc(F)c1)NC(=O)NC1CCCC1
  A: 3.7; B: 3.4; C: 2931; D: 2.2; E: .; F: 5.7; G: -6.8
> Cc1nn(CC(=O)NNC(=S)Nc2ccccc2)c(C)c1[N+](=O)[O-]
  A: 2.4; B: 1.2; C: 21125*; D: 2.5; E: -15.8; F: 2.2; G: -12.9
> CC(CC(=O)Nc1ccc(C(N)=O)cc1)c1ccccc1 (centres undefined)
  A: 4.1; B: 6.6; C: 1949; D: 7.9; E: 1.2; F: 4.8; G: -20.9
> COC(=O)c1ccc2c(=O)n(CC3CCCO3)c(SCC(=O)Nc3ccccc3OC)nc2c1 (centres undefined)
  A: 3.5; B: 5.6; C: 8861; D: 2.8; E: 5.6; F: 3.8; G: -16.5
> CS(=O)(=O)N(CCc1ccccc1)CC(=O)Nc1ccc(OCc2ccccc2)cc1
  A: 0.6; B: 3.9; C: 2462; D: 6.4; E: 2.3; F: -7.7; G: -20.9
> Nc1ccc2nc3n(c(=O)c2c1)CCC3
  A: 8.8; B: 2.8; C: 4098; D: 0.7; E: -5.8; F: 10.1; G: 1.4
> C#CCOCCOCCOCCNc1nc(N2CCOCC2)nc(N2CCN(C(=O)[C@H](Cc3ccc(O)cc3)n3cc([C@@H](N)CC(C)C)nn3)CC2)n1
  A: .; B: .; C: 3853; D: .; E: 1.7; F: .; G: -13.5
> CCOc1ccc(CNC(=O)C2Cc3cc(S(=O)(=O)N4CCCCC4)ccc3N2C(C)=O)cc1 (centres undefined)
  A: 2.1; B: -3.6; C: 5505; D: -2.6; E: -8.5; F: 7.1; G: -11.6
> Cc1cc(C(=O)CSc2nnc(C3COc4ccccc4O3)n2C)c(C)n1-c1ccc(F)cc1 (centres undefined)
  A: .; B: .; C: 5394; D: 2.4; E: -2.0; F: -0.2; G: -12.2
> COC(=O)C1NC(C(NC(=O)COc2ccccc2)C(=O)NCc2ccsc2)SC1(C)C (centres undefined)
  A: 4.8; B: 5.8; C: .; D: 2.6; E: .; F: -12.1; G: .
> COc1ccc(C2(C)NC(=O)N(CC(=O)NC3(C#N)CCCCC3)C2=O)cc1 (centres undefined)
  A: -2.5; B: 2.0; C: 5969; D: 1.4; E: 8.2; F: 4.2; G: 14.2
> C#CCNc1nc(C(C)C)nc2c1nnn2Cc1ccccc1F
  A: 8.1; B: 11.4; C: 3880; D: 6.8; E: 1.9; F: 10.4; G: -32.0
